Arbovirus anti: antivirals against arbovirus infection; arbovirus infection cell-based antiviral screen; inhibition, % at 10 µM; 200,000 tested, 0.37% active;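 active means inhibition from about 30%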;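 further: bluetongue infection of BSR cells; cell survival read as ATP light after 72 h; 0% = infected wells without compound and 100% = uninfected wells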
RecA splice inh: Mtb RecA intein splicing inhibition | cell-free RecA intein splicing, fluorescence | inhibition, %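 (about 9 µM by stock and volumes)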 | 290,000 tested, 0.75% active | AID 2221; in the data active means inhibition above about 30%; inconclusive means no clear call, values can overlap the other calls;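 further: 0% = vehicle wells and 100% = reference inhibitor control wells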
Target sequence (P9WHJ3 whole entry, looked up, canonical isoform): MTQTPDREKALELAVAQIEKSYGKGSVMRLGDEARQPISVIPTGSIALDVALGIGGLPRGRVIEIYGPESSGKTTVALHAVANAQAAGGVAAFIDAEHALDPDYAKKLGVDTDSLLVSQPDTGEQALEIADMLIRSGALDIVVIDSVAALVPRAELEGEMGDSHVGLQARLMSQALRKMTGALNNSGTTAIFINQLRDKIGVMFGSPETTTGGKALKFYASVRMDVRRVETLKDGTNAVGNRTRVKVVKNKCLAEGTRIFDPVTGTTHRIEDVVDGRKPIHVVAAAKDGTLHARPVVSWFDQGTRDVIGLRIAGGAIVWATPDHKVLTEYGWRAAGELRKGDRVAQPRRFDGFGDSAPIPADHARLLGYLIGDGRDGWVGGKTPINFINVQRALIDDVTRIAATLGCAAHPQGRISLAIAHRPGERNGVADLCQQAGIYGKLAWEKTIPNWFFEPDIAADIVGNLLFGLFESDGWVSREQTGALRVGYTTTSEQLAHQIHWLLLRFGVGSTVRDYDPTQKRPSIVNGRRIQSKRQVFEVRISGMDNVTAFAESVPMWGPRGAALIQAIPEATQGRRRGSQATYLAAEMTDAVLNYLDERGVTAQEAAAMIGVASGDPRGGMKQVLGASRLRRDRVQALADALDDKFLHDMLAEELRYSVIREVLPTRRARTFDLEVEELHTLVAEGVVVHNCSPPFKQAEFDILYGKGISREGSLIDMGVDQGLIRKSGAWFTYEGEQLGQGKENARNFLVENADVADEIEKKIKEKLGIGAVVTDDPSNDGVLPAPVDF
Mtb growth: M. tuberculosis H37Rv growth inhibitors, H37Rv strain (AID 1626); M. tuberculosis H37Rv growth inhibition; higher % means a stronger effect; 220,000 tested, 0.95% active; inhibition, % at 10 µM; hits with a dose series show IC50 in µM;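 active means confirmed in a dose series; inconclusive means inhibition above 80% but not taken into the dose series; inactive means below 80% or under 30% at every dose of the series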;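 further: bacteria incubated seven days before Alamar blue readout; 0% = bacteria only wells and 100% = bacteria with antibiotic wells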
YopH PTP inh: blocks Yersinia enterocolitica YopH tyrosine phosphatase | fluorescence Ex485/Em525 | inhibition, %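 (about 10 µM by stock and volumes)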 | 140,000 tested, 0.16% active;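 active means inhibition of 50% or more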;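 further: controls were vehicle for no effect and minimum signal wells for full effect; inactives centre near -20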
Mtb bLac sens: beta-lactam sensitization of Mtb H37Rv; M. tuberculosis H37Rv growth with meropenem, percent inhibition; hits of this screen are not shown here; inhibition, % at 25 µM; 330,000 tested, 0.27% active; AID 434955;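 active means about 74% or more and at least 40 points above the plate without the antibiotic, then above 30% in a dose series; inconclusive means first-round hits that could not be retested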;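 further: growth measured after seven days incubation then overnight dye step; 0% = bacteria only wells and 100% = bacteria with antibiotic; twin plates without the antibiotic show which effects depend on it; some results filed as inactive read as strong as hits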
Arbovirus anti repeat: second read-out of Arbovirus anti, no call of its own (marks repeat the call); inhibition, %; measured here: 10K subset replicate screen; many hits read low in the repeat;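 first of two repeat runs on a subset; 0% = infected and 100% = uninfected wells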
Numbers without * were called inactive; u = inconclusive; x = not tested or not shown. Not all compounds are listed, so the mix of outcomes need not match the whole.

SMILES	Arbovirus anti	RecA splice inh	Mtb growth	YopH PTP inh	Mtb bLac sens	others
CC(Oc1ccccc1)C(=O)NC1C(=O)N2C1SC(C)(C)C2C(=O)O (stereo not given)	0	-2.1	-4%	x	-4
CC(=O)Oc1ccc(C(=O)Nc2ccccc2NC(=O)c2ccc(OC(C)=O)cc2)cc1	x	0.8	x	x	6
COc1ccc(CC2(CO)CCN(C(C)COc3ccccc3)CC2)cc1 (stereo not given)	-10	-1.4	-3%	x	1
O=C(/C=C/Nc1ccc(F)cc1F)c1ccco1	-9	x	-4%	x	1
COc1ccc(C(=O)NC(=S)N2CC(C)OC(C)C2)cc1 (stereo not given)	-1	-0.9	2%	-21	0
COc1ccc(C2SCC(=O)Nc3c2c(C)nn3-c2ccccc2)cc1 (stereo not given)	10	-0.1	1%	-12	6
CCN(CC(=O)NCc1ccc(F)cc1)CC(=O)Nc1ccccc1-c1ccccc1	2	3.3	-7%	x	11
O=C(NC12CC3CC(CC(C3)C1)C2)N1CCN(S(=O)(=O)c2ccc(Cl)cc2)CC1	3	-0.9	-2%	-23	8
COc1ccc(S(=O)(=O)N(CCc2ccccc2)CC(=O)N/N=C/c2ccc3c(c2)OCO3)cc1	-4	-2.6	54%	-25	-10
COc1ccc(CCC(C)NC2C3CC4CC(C3)CC2C4)cc1 (stereo not given)	4	2.2	x	-28	x
CCc1ccc(NC(=O)CCn2ccnc2C)cc1	1	-0.6	-9%	-25	3
Cc1ccc(CNC(=O)Cc2nc3nc(C)cc(C)n3n2)cc1	-12	-0.9	4%	-24	7
CNS(=O)(=O)c1cccc(C(=O)OCC(=O)c2ccc(S(=O)(=O)N3CCCCC3)cc2)c1	x	-1.3	x	x	0
C/C(=N\Nc1nc(-c2ccccc2O)nc2ccccc12)c1ccccc1	3	-1.9	1%	x	4
CCOC(=O)N1CCN(Cc2nnc(-c3ccccc3C)o2)CC1	x	-1.2	x	x	1
OCCC1CN(Cc2c(F)cccc2Cl)CCN1C1CCCCC1 (stereo not given)	-11	-0.2	-5%	x	-15
O=C(Nc1cccc(Cn2cccn2)c1)c1cc2c(s1)CCCC2	-16	0.7	6%	-35	54
Cc1ccc(/C=N\NC(=O)Cc2noc3ccccc23)cc1	x	-1.3	x	x	2
COc1ccc(N2CCN(C(=O)COC(=O)Cc3cccc(OC)c3)CC2)cc1	x	-0.1	x	x	-2
COc1ccc(C(=O)c2ccc(Cl)cc2)cc1	-4	1.7	6%	-2	-1
COCOc1ccc(/C=C2/Oc3cc(OCOC)cc(OCOC)c3C2=O)c(OCOC)c1	x	-6.3	3%	x	-4
CCc1ccc(NC(=O)c2ccc3nc(N)sc3c2)cc1	27	-0.9	8%	-17	1
c1cnc(-c2noc(CN3CCN(C4C5CC6CC(C5)CC4C6)CC3)n2)cn1 (stereo not given)	0	0.5	-2%	x	5
Cc1c2cnn(CC(=O)NCCN3CCOCC3)c(=O)c2c(C)n1Cc1ccc(F)cc1	x	2.5	x	x	1
CS(=O)(=O)N(CC(=O)Nc1cccc(F)c1)Cc1ccccc1	17	-2.6	-2%	-1	-3

Brought forward from above: 5 compounds, followed by the next part.
SMILES	Arbovirus anti	RecA splice inh	Mtb growth	YopH PTP inh	Mtb bLac sens	others
COCOc1ccc(/C=C2/Oc3cc(OCOC)cc(OCOC)c3C2=O)c(OCOC)c1	x	-6.3	3%	x	-4
CCc1ccc(NC(=O)c2ccc3nc(N)sc3c2)cc1	27	-0.9	8%	-17	1
c1cnc(-c2noc(CN3CCN(C4C5CC6CC(C5)CC4C6)CC3)n2)cn1 (stereo not given)	0	0.5	-2%	x	5
Cc1c2cnn(CC(=O)NCCN3CCOCC3)c(=O)c2c(C)n1Cc1ccc(F)cc1	x	2.5	x	x	1
CS(=O)(=O)N(CC(=O)Nc1cccc(F)c1)Cc1ccccc1	17	-2.6	-2%	-1	-3
Nc1nc2ccc(NC(=O)c3ccco3)cc2s1	x	-2.3	x	x	3
O=C(NC1CCCCC1)[C@H](O)[C@@H](O)C(=O)NC1CCCCC1	-4	0.8	-2%	-6	-2
COc1ccc(C(=O)c2c(NC(C)=O)sc3c2CCN(C(=O)OC(C)(C)C)C3)cc1	x	8.4	x	x	-2
Cc1ccc(Cn2ccsc2=NC(=O)COC(=O)C(C)C)cc1	x	3.4	x	x	-5
COc1ccc2c(c1)cc(C)c1nnc(SCC(=O)N3CCN(C(=O)c4ccco4)CC3)n12	x	-1.8	-1%	x	-5
COc1ccc2c(c1)c1ncn(CCc3ccccc3)c(=O)c1n2C	-15	4.8	5%	-17	54
COc1ccc(NC(=S)NCCN2CCC(C)CC2)cc1Cl	0	0.6	-6%	x	1
COc1cc2c(cc1OC)CN(C(=O)c1ccc(OC)c([N+](=O)[O-])c1)CC2	x	x	-4%	x	-11
Cc1oc2cc3oc(=O)c(CC(=O)NCCCC(=O)O)c(C)c3cc2c1C	x	-2.7	x	x	4
OC(COCCOc1ccc(Br)cc1)CN1CCN(Cc2ccccc2)CC1 (stereo not given)	-4	1.3	5%	-24	1
Cc1cc(-c2ccccc2)c2c3c(c(-c4ccccc4)n2n1)c(=O)n(C)c(=O)n3C	-9	-1.2	0%	-44	0
CC1C(=O)N2CCCc3cc(NC(=O)C(=O)NCc4cccnc4)cc1c32 (stereo not given)	x	1.4	x	x	-10
O=C(CC12CC3CC(CC(C3)C1)C2)Nc1ccccc1N1CCOCC1	5	5.9	9%	x	-4
CN(C)S(=O)(=O)c1ccc(NC(=O)COC(=O)c2n[nH]c3ccccc23)cc1	12	-1.9	-2%	11	-1
COc1ccccc1CN1CC(C(=O)NCc2ncccc2C)CCC1=O (stereo not given)	x	1.4	x	x	u
CCc1cc2c(C)cc(C)cc2nc1SCC(=O)Nc1cc(C)on1	-8	4.8	-4%	x	-3
S=c1[nH]nc(CSCCOc2ccc(Cl)cc2Cl)o1	x	1.6	8%	x	-1
CSCC[C@H](NS(=O)(=O)c1ccc(C)cc1)C(=O)N1CCC(C(=O)N[C@@H](Cc2ccccc2)C(=O)O)CC1	x	0.1	x	x	-7
CSc1nc(-c2ccccc2)cn1-c1ccc(NC(C)=O)cc1	-28	0.8	4%	x	2
COCCC1CCCCN1C(=O)c1cc(COc2ccc(C)nc2)on1 (stereo not given)	x	2.6	x	x	u
O=C(O)C1CCCN1S(=O)(=O)c1ccccc1 (stereo not given)	7	0.5	32%	-2	10
Cc1cc(NC(=O)CSc2nc3c(c(-c4cccnc4)c2C#N)CCC3)no1	-10	-0.7	11%	3	9	Arbovirus anti repeat=-11
O=[N+]([O-])c1ccc(N2CCCCC2)cc1	x	5.0	10%	x	1
CCOC(=O)c1c(C)[nH]c(C)c1C(=O)COC(=O)/C=C/c1cccc(Cl)c1	8	4.7	11%	-5	3
O=C(O)c1cc(Cl)c(Cl)cc1C(=O)N1CCOCC1	0	-2.8	-4%	-35	4	Arbovirus anti repeat=6

Quoted at random: five records from the list
SMILES	Arbovirus anti	RecA splice inh	Mtb growth	YopH PTP inh	Mtb bLac sens	others
O=C(O)c1cc(Cl)c(Cl)cc1C(=O)N1CCOCC1	0	-2.8	-4%	-35	4	Arbovirus anti repeat=6
COc1ccc(C(=O)c2c(NC(C)=O)sc3c2CCN(C(=O)OC(C)(C)C)C3)cc1	x	8.4	x	x	-2
CSc1nc(-c2ccccc2)cn1-c1ccc(NC(C)=O)cc1	-28	0.8	4%	x	2
CSCC[C@H](NS(=O)(=O)c1ccc(C)cc1)C(=O)N1CCC(C(=O)N[C@@H](Cc2ccccc2)C(=O)O)CC1	x	0.1	x	x	-7
COc1ccc(NC(=S)NCCN2CCC(C)CC2)cc1Cl	0	0.6	-6%	x	1

The listing continues:
SMILES	Arbovirus anti	RecA splice inh	Mtb growth	YopH PTP inh	Mtb bLac sens	others
COc1ccc(CCNC(=O)COc2ccc(-c3ccc(C#N)cc3)cc2)cc1	4	1.5	-19%	-31	1
N#CCC(=O)N1CCN(C(c2ccccc2)c2ccccc2)CC1	x	0.6	x	x	-1
O=C(NC1CC2CCCC(C1)N2C(=O)NC1CCCCC1)c1ccc(F)cc1 (stereo not given)	-4	-8.9	-7%	-38	0
COc1ccccc1NC(=O)C1=C(C)NC(SCC(=O)c2ccc(C)cc2)=C(C#N)C1c1ccco1 (stereo not given)	1	x	x	-14	x
CN1CCN(c2ccc([N+](=O)[O-])cc2/C=N/NC(=O)c2cccc([N+](=O)[O-])c2)CC1	5	0.5	3%	-19	2
COc1ccc(Cl)cc1S(=O)(=O)NC(C)C(=O)NCc1ccc2c(c1)OCO2 (stereo not given)	x	0.2	x	x	-5
COc1ccccc1Nc1nc(N)nc(CN2CCCCC2)n1	0	-0.7	-3%	x	2
COc1ccccc1N1CCN(CC(=O)Nc2cccc(F)c2)CC1	2	1.1	6%	-18	-12
COCCCNC(=O)C12CCC(C)(C(=O)C1)C2(C)C (stereo not given)	-2	1.0	-14%	-128	3
CC1CCCCN1c1ncnc(N)c1[N+](=O)[O-] (stereo not given)	24	-2.8	3%	x	6
O=C(NCCN1CCOCC1)c1ccc(Cl)cc1O	x	-0.8	x	x	0
C=CCc1c(NCCO)nc(C)[nH]c1=O	4	1.8	1%	x	-3
Cc1nc(C(=O)N(C)C)nn1-c1cc(Cl)ccc1Cl	14	1.3	-9%	2	-2
N#Cc1cc(C(=O)c2cc(F)ccc2O)cn(Cc2ccccc2)c1=O	6	-0.8	1%	x	4
Cn1c(SCC(=O)NC2CCCCC2)nnc1-c1cccnc1	x	-0.5	x	x	0
COc1ccc(OC)c(C2NC(=O)CCC2[N+](=O)[O-])c1 (stereo not given)	x	-1.0	x	x	2
Fc1ccccc1-c1nc2ncccc2o1	1	2.6	-10%	x	-4
O=c1c(S(=O)(=O)c2ccc(Cl)cc2)cn(Cc2ccccc2F)c2ccc(F)cc12	2	-1.0	8%	-38	-6
COc1ccccc1C1CC(c2ccc(Cl)cc2)Nc2nc(N)nn21 (stereo not given)	4	0.3	-3%	-47	12
CCCN(CC(=O)Nc1ccccc1C)C(=O)c1ccc(N2CCOCC2)c([N+](=O)[O-])c1	x	0.4	x	x	-5
CCOC(=O)C1CCN(C(=S)NC(=O)c2cccs2)CC1	x	-0.5	x	x	6
Cc1c(NS(=O)(=O)c2cccc(C(=O)NCc3ccccc3)c2)c(=O)n(-c2ccccc2)n1C	0	-1.2	x	1	-8
COc1cccc(OC)c1C(=O)Nc1nnc(-c2ccc(F)cc2)s1	x	-1.4	x	x	3
COc1cc(NC(=O)c2ccc(=O)[nH]n2)cc(OC)c1OC	x	-2.7	x	x	5
CC(C)(C)OC(=O)NCCCCC1=CC2=CC(=O)C(C)(OC(=O)c3ccco3)C(=O)C2=CO1 (stereo not given)	x	-1.3	0%	x	-1

Next records follow:
SMILES	Arbovirus anti	RecA splice inh	Mtb growth	YopH PTP inh	Mtb bLac sens	others
COc1ccc(/C=C2\N=C(C)N(c3ccc(C(=O)O)cc3)C2=O)cc1OC	-4	-4.4	-6%	-21	46
COc1ccc(OCc2nc3ccccc3[nH]2)cc1	-5	1.2	-4%	-14	6
Cc1ccc(C)c(S(=O)(=O)N2CCCC2CNC(=O)C(=O)NC2CC2)c1 (stereo not given)	x	0.2	x	x	-10
CCOC(=O)c1nn(-c2ccccc2)c(C#N)c1N	-4	1.1	4%	x	7
COc1ccccc1C/C(N)=N/OC(=O)COc1cccc(C)c1C	2	4.7	11%	x	-9
CCOc1ccc(NC(=S)N2CCN(S(C)(=O)=O)CC2)cc1	x	0.5	x	x	-4
COc1cc(Cl)c(C)cc1NC(=O)Cc1ccc(OC)c(OC)c1	0	-0.9	0%	x	-3
CCOC(=O)C(=NC1CCS(=O)(=O)C1)NNc1ccccc1Cl (stereo not given)	x	-0.9	5%	x	37
CC(=O)NCC(=O)NC1CCCc2c1cnn2-c1ccccc1F (stereo not given)	x	-2.1	x	x	-7
COCCCNc1nc2c(c(=O)n(Cc3ccc(F)cc3)c(=O)n2C)n1C	x	0.9	x	x	-1
CCCCNC(=O)C1CCN(c2nc(OC)nc(OC)n2)CC1	2	0.7	2%	3	-1
Cc1ccc(C(=O)NCC(=O)NCCSc2ccc(Br)cc2)cc1	x	-2.9	x	x	-5
C=C(C)Cn1c(C)cc(C)c(S(=O)(=O)c2ccccc2C)c1=O	6	14	-1%	-37	-5
CC(NC(=O)COc1cccc(Br)c1)C(=O)O (stereo not given)	5	4.5	x	-5	-2
Cc1ccc(CNC(=O)CCS(=O)(=O)c2cccc3nsnc23)cc1	6	0.1	-7%	-22	-6	Arbovirus anti repeat=-1
C/C(O)=C\c1nc2ccccc2oc1=O	-10	-1.2	76%	-17	99
Cc1ccsc1/C=N/NC(=O)c1ccc(Cn2cc(Br)cn2)o1	-1	-1.9	6%	-14	-4
Cc1ccc(CN2CCN(Cc3cn(C)nc3-c3ccccc3)CC2CCO)o1 (stereo not given)	9	-1.9	-1%	x	-5
O=C(CSc1ccc(-c2cccc([N+](=O)[O-])c2)nn1)NC1CCCC1	-2	-3.5	-1%	x	5
CC(=O)Oc1ccc(C(=O)Nc2ccccc2C(=O)N2CCCCC2)cc1	2	0.5	-6%	x	-9
